CapD inh: inhibitors of Bacillus anthracis CapD enzyme | z-score (no concentration beside the values) | purified CapD enzyme, fluorescence intensity read-out; hits give low values; some hits fall short of the stated cut | hit rate 0.23% among 140,000;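 active = z-score under -4 in either of two replicates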;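 note: stock transfer was 100 nL into about 40 µL; score is relative to mean and spread of the plate; one replicate is shown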
AID504770: growth inhibitors of E. coli YBA685 in a screen for V. cholerae RctB (chromosome II replication) inhibitors; E. coli YBA685 rctB-dependent plasmid, OD600 growth, 3 h; hits give low values; z-score (test concentration not listed); hit rate 0.27% among 130,000;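 active = z-score under -2 on both plates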;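 note: wells of about 30 µL received 100 nL stock; score is relative to mean and SD of the test wells; the first replicate is given; strong numbers were not always called active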
An asterisk follows results filed as active; / = not tested or not shown.

SMILES	AID504770	CapD inh
Cc1onc(-c2ccccc2Cl)c1C1=N/C(=C\c2ccc([N+](=O)[O-])cc2)C(=O)O1	/	-1.7
Cc1ccc(C(=O)NCC2CCCO2)cc1C (configuration not stated)	0.85	0.68
CCCCC(C(=O)Nc1ccccc1Cl)N1C(=O)c2ccccc2C1=O (configuration not stated)	/	1.1
C/C(=N/NS(=O)(=O)c1ccc(C)cc1)c1c(O)c2ccccc2oc1=O	-0.75	0.095
Cn1c(NNC(=O)C(c2ccccc2)c2ccccc2)cc(=O)n(C)c1=O	1.6	/
Cc1ccc(C2N3CCCN23)cc1 (configuration not stated)	0.85	-0.85
O=C(NCCCn1ccnc1)c1ccc(S(=O)(=O)Nc2ccccc2)cc1	0.95	/
Cc1oc2c(c1C(=O)NCCCn1ccnc1)C(=O)c1ccccc1C2=O	-1.4	0.43
C=Cc1nc2c(cnn2-c2ccccc2)c(=O)[nH]1	0.55	/
NS(=O)(=O)c1ccc(NC(=O)CSCC(=O)O)cc1	0.1	0.065
CCCN1CCC(N(C2CC2)S(=O)(=O)c2ccc(NC(=O)Nc3ccc(F)cc3F)cc2)CC1	/	-0.45
c1ccc2c(CNc3ccc(CNc4ncn[nH]4)cc3)cccc2c1	-0.1	1.9
Cc1ccc(S(=O)(=O)N2CN3CN(C2)CN(S(=O)(=O)c2ccc(C)cc2)C3)cc1	-0.4	0.15
CN(C(=O)c1c(Cl)nc2sccn12)C1CCCCC1	0.8	1.2
COc1ccccc1OCCC(=O)Nc1nc(C)cs1	0.1	/
CCOC(=O)N1CCN(C(=O)c2sc3nc(C)nc(N4CCOCC4)c3c2C)CC1	/	-0.26
CC(C)NC(=O)NCc1cccn1Cc1ccccc1	0.15	-0.58
Nc1nc2ccccc2n1CCN1CCOCC1	-0.35	-0.31
Cc1ccc(CN2C(=O)C=CC2=O)cc1	1.6	-0.75
Cc1cccc2cc(CN(Cc3ccco3)C(=O)c3ccccc3)c(=O)[nH]c12	1.9	/

Exported field by field: part of the list above
> C/C(=N/NS(=O)(=O)c1ccc(C)cc1)c1c(O)c2ccccc2oc1=O
  AID504770: -0.75	CapD inh: 0.095
> Cn1c(NNC(=O)C(c2ccccc2)c2ccccc2)cc(=O)n(C)c1=O
  AID504770: 1.6	CapD inh: /

Further entries:
SMILES	AID504770	CapD inh
CCc1ccc(-c2cc(C(=O)Nc3ccc(S(=O)(=O)NC(C)=O)cc3)c3ccccc3n2)cc1	1.6	0.085
O=C(CCNS(=O)(=O)c1cccc2nsnc12)NC1CCCCC1	-0.65	0.35
Cc1ccc2nc(NC(=O)c3ccc(-c4ccccc4)cc3)sc2c1	-0.8	-0.62
N/C(=N\c1ncn[nH]1)N/N=C/c1c(Cl)cccc1Cl	-0.3	-1.3
COc1cc(-c2nc3ccccc3c(=O)n2NC(=O)c2c(F)cccc2F)cc(OC)c1OC	/	-0.4
Cc1cc(C)c(OCC(O)CNC2CC(C)(C)NC(C)(C)C2)c(C)c1 (configuration not stated)	-0.7	-0.54
COc1ccc(C(=O)N=c2sc3cc(C)ccc3n2C)c(OC)c1	-0.5	14
O=C(CSc1nnc(COc2ccccc2)o1)c1ccccc1	1.1	-0.72
CCCC(=O)Nc1c(C(=O)c2ccccc2)oc2ccccc12	0.2	4
CC(C)C(=O)Nc1ncc(C(F)(F)F)cc1Cl	1	0.92
CCNC(=S)N1c2ccccc2NC2=C(C(=O)CC(C)(C)C2)C1c1ccc(N(C)C)cc1 (configuration not stated)	0.2	1
CCOC(=O)CN(C)Cc1ccc(OC)cc1OC	-0.45	0.36
COc1ccc(-c2sccc2C(C)C(=O)O)cc1 (configuration not stated)	0.75	/
CC1=C(C(=O)OCCc2ccccc2)C(c2ccc(Br)s2)NC(=O)N1C (configuration not stated)	/	0.29
COC(=O)c1cc2ccsc2n1Cc1cccc(F)c1	-0.15	-0.58
Cc1cc(C)n(CCC(N)=O)n1	1.4	0.14
CN1/C(=C/C=N/O)C(C)(C)c2ccccc21	1.9	-1.1
COc1ccc(/C=C2/N=C(c3ccccc3)OC2=O)cc1OC1CCCC1	/	-0.18
CCN1C/C(=C\c2cccs2)C(=O)/C(=C/c2cccs2)C1	-0.15	-1.2
COc1ccc(N2CCN(C(=O)c3ccc(NS(=O)(=O)c4cccs4)cc3)CC2)cc1	-0.35	17

7 of the compounds above, with values under each structure:
Results follow in this order: AID504770, CapD inh
Cc1cc(C)c(OCC(O)CNC2CC(C)(C)NC(C)(C)C2)c(C)c1 (configuration not stated)
  -0.7, -0.54
CN1/C(=C/C=N/O)C(C)(C)c2ccccc21
  1.9, -1.1
Cc1ccc2nc(NC(=O)c3ccc(-c4ccccc4)cc3)sc2c1
  -0.8, -0.62
O=C(CSc1nnc(COc2ccccc2)o1)c1ccccc1
  1.1, -0.72
CCc1ccc(-c2cc(C(=O)Nc3ccc(S(=O)(=O)NC(C)=O)cc3)c3ccccc3n2)cc1
  1.6, 0.085
N/C(=N\c1ncn[nH]1)N/N=C/c1c(Cl)cccc1Cl
  -0.3, -1.3
COC(=O)c1cc2ccsc2n1Cc1cccc(F)c1
  -0.15, -0.58

More compounds.
SMILES	AID504770	CapD inh
C=CCN1CCN(C(=O)c2ccccc2C)CC1	-0.45	-1.3
N#CC(Nc1ccc(F)cc1)c1ccco1 (configuration not stated)	-2	/
CON(C)c1nc(-c2cccnc2)nc2ccccc12	1.5	/
Cc1ccc2sc(NC(=O)C(C)C)nc2c1C	0.85	-0.24
S=C1NN=C(c2ccccc2)C(c2ccccc2)N1 (configuration not stated)	0.05	7.7
N#Cc1c(-c2c(Cl)cccc2Cl)noc1/C=C/Nc1ccc(Cl)cc1	/	-0.8
Cn1ccnc1Sc1ccnc2cc(Cl)ccc12	-1.1	/
O=[N+]([O-])c1ccc(CSc2nnc(-c3ccco3)n2Cc2ccccc2)cc1	/	-0.74
CSc1cccc(N2C(=S)NC3c4ccccc4OC24CCCC34)c1 (configuration not stated)	0.7	0.71
N#Cc1ccsc1NS(=O)(=O)c1ccc(OC(F)(F)F)cc1	-0.4	0.2
COc1cc(OC)c(NS(=O)(=O)c2coc(C(N)=O)c2)cc1Cl	-0.15	-0.15
O=C1CCCC2=C1C(c1cccnc1)C1=C(CCCC1=O)O2	0.95	0.4
COC(=O)c1cc(NC(=O)CCS(=O)(=O)c2ccc(Br)cc2)cc(C(=O)OC)c1	0.25	0.44
CC(C)Cn1c(CCNC(=O)c2ccccc2)nc2ccccc21	-0.6	-0.65
CCOC(=O)c1cnc2c(ccc3ccccc32)c1Nc1ccccc1CC	/	-0.33
Cc1cc(C)nc(SCC(=O)OCC(=O)Nc2ccc(N3CCCCC3)cc2)n1	-0.65	/
CCCCn1c(N)c(N2CCN(Cc3ccccc3)CC2)c(=O)[nH]c1=O	1.2	/
Cc1onc(-c2ccccc2)c1-c1nnc(CSc2nnnn2C)o1	-0.15	/
N#CC(CC(=O)N1CCCC1)(CC(=O)N1CCCC1)c1nc2ccccc2s1	1.2	/
CC(=O)Nc1ccc(N2C(=S)N=C(Nc3c(C)cccc3C)C23CCC(C(C)(C)C)CC3)cc1 (configuration not stated)	/	-1.2
COc1ccc(C2CC(c3ccc(Br)cc3)=NN2C(C)=O)cc1OC (configuration not stated)	/	-1
CCN1C2=C(C(=O)CCC2)C(c2cccc(OC)c2)C2=C1CCCC2=O	-0.75	16
O=C(O)CCCCN1Cc2ccccc2C1	-0.3	/
O=C(CN1CCCC1)Nc1cc(C(F)(F)F)cc(C(F)(F)F)c1	-0.1	-0.14
CCOC(=O)c1sc2nc(NC(=O)Cc3ccccc3)sc2c1C	0.15	/
COc1ccc(CCCc2n[nH]c(=S)o2)c(C)c1	-0.35	/
O=C(NCC(O)c1ccccc1)Nc1cccc(C(F)(F)F)c1 (configuration not stated)	0.8	0.055
Cn1c(=O)oc2cc(S(=O)(=O)NCCN3CCC(Cc4ccccc4)CC3)ccc21	-0.9	0.39
CCc1cc2c(cc1C(=O)CCN1CCCC1)C(C)(C)CCC2(C)C	/	-0.26
O=C(CSc1ncnc2sc3c(c12)CCCC3)NCCc1ccccc1	/	-0.35
COC(=O)c1ccc(/N=C/N(C)C)s1	0.1	/
CCC(=O)NCc1csc(-c2cccs2)n1	0.05	32
N=C(N)SCc1ccccc1	1.1	-0.03
O=C(CSc1c2c(nc3cc(Cl)ccc13)CCCC2)NCCCN1CCCCCC1	0.25	36
COc1ccc2c(c1)-c1ccccc1S(=O)(=O)N2C	0.35	0.38
CN(C)S(=O)(=O)c1cccc2c1N(C(=O)Nc1ccc(F)cc1F)CC2	/	-0.08
COC(=O)C1CCN(C(=O)CC(NC(=O)C(F)(F)F)c2cccs2)CC1 (configuration not stated)	/	-0.56
COc1cc(/C=C2/C(=O)NC(=O)N(c3cccc(C)c3)C2=O)c([N+](=O)[O-])cc1OC	/	0.55
COc1ccc(OC)c(S(=O)(=O)NC2CCCCNC2=O)c1 (configuration not stated)	1.8	-0.24
O=C(CSc1nncc2ccccc12)Nc1ccccc1	1.1	-0.57
CC(C)(C)c1ccc(COC(=O)NCC2CCCCC2O)cc1 (configuration not stated)	/	-0.9
COc1ccc(CNC(=O)CCn2cnc3c2c(=O)n(C)c(=O)n3C)cc1	2.5	/
N#Cc1c2c(c(NCc3ccccn3)n3c1nc1ccccc13)CCCC2	-0.3	/
Cc1ccccc1C(=O)NCCn1cc(SCC(=O)Nc2nccs2)c2ccccc21	0	/
Cc1nccc(-c2cccc(C#N)c2)n1	-0.85	/
COc1ccc(C2C(C#N)=C(N)Oc3n[nH]c(C)c32)cc1CN1CCCc2ccccc21 (configuration not stated)	/	-0.28
COC(=O)c1nn(-c2ccccc2)c(=O)cc1Sc1ccc(Cl)cc1	/	0.33
COc1ccc(S(=O)(=O)N(C)c2ccc(C(=O)N3CCN(c4ccccc4F)CC3)cc2)cc1OC	-0.55	-0.25
O=C(CCn1c(=O)sc2ccccc21)NC1CCCCC1	1.5	-1.4
O=C(NCSc1ccncn1)c1ccccc1	1.2	-2.3
COc1ccc(CCNC(=O)c2ccc3c(SCC(=O)O)c4c(nc3c2)CCCC4)cc1OC	0.2	0.96
Cc1cccc(NC(=O)C2C(=O)NC3(C)CC2c2ccccc2O3)c1 (configuration not stated)	/	0.3
Cc1cc(C)c2nc(N3CCC(C(=O)N4CCN(c5ccccn5)CC4)CC3)sc2c1	-0.25	0.01
O=C(O)c1ccccc1/C=N/NC(=O)C1CCCCC1	-0.2	/
COC(=O)Cc1nc(NC2CCCCC2)c2c3c(sc2n1)CCCC3	/	-0.13
CC1CCC(NC(=O)c2ccc(NC(=O)c3ccc(=O)[nH]c3)cc2)CC1 (configuration not stated)	0.6	0.78
CC(C)=CC(=O)Nc1ccc2c(c1)OCO2	-0.85	-0.065
Cn1[nH]c(-c2ccccc2)c(/C=N/OCc2ccc(Cl)cc2Cl)c1=O	/	0.58
CCc1oc2cc(O)ccc2c(=O)c1-c1ccc2c(c1)OCCO2	-0.35	4.8
C=C(C)c1cccc(C(C)(C)NC(=O)Nc2ccc3c(c2)oc2ccccc23)c1	-0.35	-0.54

The listing continues.
SMILES	AID504770	CapD inh
COc1cc(-c2nc3ccccc3c(=O)n2N)cc(OC)c1OC	0.25	0.21
COCCNc1cn[nH]c(=O)c1Cl	0.05	/
Fc1ccc(CNCc2cccn2-c2nnc(N3CCCC3)s2)cc1	-0.4	-0.14
O=C(O)C1CC=CCC1C(=O)N1CCN(c2nc(-c3ccccc3)c3cc([N+](=O)[O-])ccc3n2)CC1 (configuration not stated)	/	-0.97
O=c1cc(-c2ccccc2)oc2cc(Cl)ccc12	-0.75	-0.07
Cc1cc(C)c(S(=O)(=O)/N=C2\SCCN2S(=O)(=O)c2c(C)cc(C)cc2C)c(C)c1	0	23
CCCN(C#N)c1nc(NC(C)C)nc(NC(C)C)n1	-0.4	-0.03
CC(C)=NOC1=NS(=O)(=O)c2ccccc21	0.1	/
CC1SCC(=O)N(c2ccc(C(F)(F)F)cc2)C1=O (configuration not stated)	0.7	0
O=C(Nc1ccccc1)c1c(F)cccc1F	-0.1	/
CCOC(=O)c1cc(C#N)c(N(C)Cc2ccccc2)nc1-c1ccccc1	/	-0.01
CC(CNC(=S)Nc1cccc(Cl)c1)CSc1ccc(Cl)cc1 (configuration not stated)	-0.8	-0.32
CCN(C(=O)c1cccnc1SCc1c(C)noc1C)c1nc2c(C)cccc2s1	-0.1	/
COc1ccccc1N1CCN(CCCNC(=O)CCc2c(C)nc3c(c2C)c(=O)n(C)c(=O)n3C)CC1	0.2	0.6
CCOC(=O)c1c(N)sc2c(OC)c(Br)ccc12	-0.5	/
CCS(=O)(=O)c1ccc(-c2csc(-c3ccncc3)n2)c(Cl)c1Cl	/	0.12
CC(NC(=O)Cn1cc(C(=O)C2CCCCC2)c2ccccc21)c1ccccc1 (configuration not stated)	0.6	0.095
Cn1c(=O)c(C(=O)CSc2nncn2-c2ccccc2)c(N)n(Cc2ccccc2)c1=O	-1.1	/
CC(=O)NC1=NN(C(C)=O)C(c2ccco2)S1 (configuration not stated)	1	/
NNC(=O)CNC(=O)c1cccc2ccccc12	-0.85	/

High-throughput results (PubChem BioAssay)
